Mtb H37Rv: M. tuberculosis H37Rv growth inhibitors, H37Rv strain (AID 1626) | M. tuberculosis H37Rv growth inhibition; higher % means a stronger effect | one-dose inhibition, % at 10 µM; IC50 in µM for titrated hits | 220,000 tested, 0.95% active;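 active = confirmed in a dose series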;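 note: bacteria incubated seven days before Alamar blue readout; 0% = bacteria only wells and 100% = bacteria with antibiotic wells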
RecA intein inh: Mtb RecA intein splicing inhibitors, primary screen, biochemical, fluorescence, HTS; Protein RecA (Mycobacterium tuberculosis (strain ATCC 25618 / H37Rv)), P9WHJ3; cell-free RecA intein splicing; inhibition, %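 (about 9 µM by stock and volumes)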; 290,000 tested, 0.75% active; AID 2221, 2009; in the data active = inhibition above about 30%;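 note: 0% = vehicle wells and 100% = reference inhibitor control wells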
Target sequence (P9WHJ3 whole entry, looked up): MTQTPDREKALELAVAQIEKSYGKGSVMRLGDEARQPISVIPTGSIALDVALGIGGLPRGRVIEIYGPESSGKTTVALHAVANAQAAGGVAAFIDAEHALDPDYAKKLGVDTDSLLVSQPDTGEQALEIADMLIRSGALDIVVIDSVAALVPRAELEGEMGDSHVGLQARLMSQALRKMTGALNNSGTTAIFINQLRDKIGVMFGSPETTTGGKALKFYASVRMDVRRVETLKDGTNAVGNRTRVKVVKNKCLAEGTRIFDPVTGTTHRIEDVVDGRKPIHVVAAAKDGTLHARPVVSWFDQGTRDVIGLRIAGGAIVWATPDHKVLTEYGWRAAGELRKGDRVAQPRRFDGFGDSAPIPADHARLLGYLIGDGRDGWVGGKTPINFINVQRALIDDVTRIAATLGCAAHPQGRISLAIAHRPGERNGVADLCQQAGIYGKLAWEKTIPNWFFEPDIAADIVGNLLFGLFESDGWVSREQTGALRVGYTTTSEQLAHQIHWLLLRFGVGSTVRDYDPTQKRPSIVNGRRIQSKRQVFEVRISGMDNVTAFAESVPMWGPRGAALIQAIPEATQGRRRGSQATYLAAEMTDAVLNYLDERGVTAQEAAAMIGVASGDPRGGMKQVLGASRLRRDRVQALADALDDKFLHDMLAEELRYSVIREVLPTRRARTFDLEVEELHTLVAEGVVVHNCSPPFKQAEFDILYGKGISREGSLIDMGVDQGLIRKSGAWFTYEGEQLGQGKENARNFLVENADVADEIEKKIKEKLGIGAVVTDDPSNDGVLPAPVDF
Arbovirus anti: antivirals against arbovirus infection, primary screen, cell-based, full library, 10K replicate subset | arbovirus infection cell-based antiviral screen | inhibition, % at 10 µM | 200,000 tested, 0.37% active | AID 1251, 2008;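 active = inhibition from about 30%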;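 note: bluetongue infection of BSR cells; cell survival read as ATP light after 72 h; 0% = infected wells without compound and 100% = uninfected wells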
YopH inh: YopH tyrosine phosphatase inhibitors, primary screen, biochemical, fluorescence Ex485/Em525. YopH tyrosine phosphatase [Yersinia enterocolitica]. inhibition, %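 (about 10 µM by stock and volumes)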. 140,000 tested, 0.16% active. AID 898, 2007;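 active = inhibition of 50% or more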;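 note: controls were vehicle for no effect and minimum signal wells for full effect; inactives centre near -20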
Mtb betalactam: beta-lactam sensitization of Mtb H37Rv, H37Rv. inhibition, % at 25 µM. 330,000 tested, 0.27% active. M. tuberculosis H37Rv growth with meropenem, percent inhibition; hits of this screen are not shown here;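 active = about 74% or more and at least 40 points above the plate without the antibiotic, then above 30% in a dose series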;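 note: growth measured after seven days incubation then overnight dye step; 0% = bacteria only wells and 100% = bacteria with antibiotic; twin plates without the antibiotic show which effects depend on it; some results filed as inactive read as strong as hits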
Arbovirus anti repeat: further read-out of Arbovirus anti, marked with its call; inhibition, %; measured here: 10K subset replicate screen; many hits read low in the repeat;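 first of two repeat runs on a subset; 0% = infected and 100% = uninfected wells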
Starred values were filed as active, the others as inactive; x = no result given. Only part of the results is shown. The share of hits here may be higher or lower than overall.

SMILES	Mtb H37Rv	RecA intein inh	Arbovirus anti	YopH inh	Mtb betalactam	others
O=C(CN(Cc1ccccc1)S(=O)(=O)c1ccccc1)N/N=C/c1ccccc1C(=O)O	-6%	0.0	-2	x	3
COC(=O)C1=C(c2ccc(S(C)(=O)=O)cc2)C[C@@H]2CC[C@H]1N2C(=O)NC1CC1	1%	0.7	x	x	-10
Cc1sc(NC(=O)COc2ccccc2)c(C#N)c1-c1ccccc1	11%	0.7	13	-13	2
CC(=O)CCN1CCOCC1	-6%	-0.4	-4	-13	-6
COc1ccc2c(c1OC)C(=O)N(c1ccc(C)cc1)C2=O	3%	1.4	-2	x	1
CC1(OC(=O)C2CCCC2)C(=O)C=C2C=C(c3ccsc3)N(Cc3ccc4c(c3)OCO4)C=C2C1=O (centres undefined)	-7%	0.1	x	x	1
O=C(NCc1n[nH]c(=S)n1-c1ccccc1)c1ccc(S(=O)(=O)N2CCCCC2)cc1	-7%	-2.2	6	x	-3
Cc1cc(C)c2cc(C(c3nnnn3CC3CCCO3)N3CCN4CCCC4C3)c(=O)[nH]c2c1 (centres undefined)	-2%	-2.4	-4	-44	3
COC(=O)c1cc(S(=O)(=O)NCc2cc(OC)c(OC)c(OC)c2)cn1C	x	1.0	x	x	6
Cc1cc(C)c2c(=O)n(CC(=O)Nc3cccc(Cl)c3C)sc2n1	29%	-4.6	x	x	-3
COc1ccc(-c2nnc(NC(=O)CSc3ccc(C)cc3)s2)cc1OC	-1%	5.2	-9	-34	6
CNC(=O)C(=O)N/N=C/c1ccc(Br)cc1	0%	-2.4	0	x	-3
COc1ccc(-n2c(C)cc(C(=O)COC(=O)c3cc(NC(=O)c4cccs4)c(OC)c(OC)c3)c2C)cc1	5%	-0.1	-2	-16	2
CC(C)c1nc(CNC(=O)C2CCC(=O)N(Cc3ccc(Cl)cc3)C2)no1 (centres undefined)	x	-2.9	x	x	-10
Cn1c2c(c(=O)n3ncnc13)CCCC2	0%	0.9	x	x	-3
CC(C)(C)C(=O)NNC(=O)c1cc(C(C)(C)C)nn1Cc1ccccc1	1%	-0.4	x	x	0
N#C/C=C(/N)c1ccc(Br)cc1	3%	7.3	-7	-38	-1
CCSc1nc(C2CC2)cc(-c2cccs2)c1C#N	4%	10	2	-4	11
NC(=O)c1nsc(C(=O)N(CC(=O)NC2CCCCC2)c2cccc(F)c2)c1N	x	-0.2	x	x	-5
CCCCCCn1c2c(c(=N)c3c1CCC3)CCC2	1%	-0.7	-18	-10	-8

By substructure, those above containing a halogen (5)
SMILES	Mtb H37Rv	RecA intein inh	Arbovirus anti	YopH inh	Mtb betalactam	others
Cc1cc(C)c2c(=O)n(CC(=O)Nc3cccc(Cl)c3C)sc2n1	29%	-4.6	x	x	-3
CNC(=O)C(=O)N/N=C/c1ccc(Br)cc1	0%	-2.4	0	x	-3
CC(C)c1nc(CNC(=O)C2CCC(=O)N(Cc3ccc(Cl)cc3)C2)no1 (centres undefined)	x	-2.9	x	x	-10
N#C/C=C(/N)c1ccc(Br)cc1	3%	7.3	-7	-38	-1
NC(=O)c1nsc(C(=O)N(CC(=O)NC2CCCCC2)c2cccc(F)c2)c1N	x	-0.2	x	x	-5

Going on with the list:
SMILES	Mtb H37Rv	RecA intein inh	Arbovirus anti	YopH inh	Mtb betalactam	others
Cc1ccccc1Nc1nc(N)nc(COC(=O)C(NC(=O)c2ccco2)C(C)C)n1 (centres undefined)	-7%	1.8	-1	-28	13
CCCN(CCO)Cc1cccc(Oc2ccccc2)c1	2%	x	4	-27	-11
CCc1ccc(N2CC(C(=O)OCC(=O)NNC(=O)c3ccccc3)CC2=O)cc1 (centres undefined)	x	0.7	x	x	-1
Cc1cc2cc(CNC(=O)Cc3ccc([N+](=O)[O-])cc3)ccc2n1C	6%	-4.8	-7	x	-3
CCCc1cc(NCCCn2ccnc2)n2nc(C)c(-c3ccccc3)c2n1	6.3µM*	3.1	x	x	83
CCOC(=O)c1ccc(NS(=O)(=O)c2cnc[nH]2)cc1	2%	-1.4	0	-28	-1
O=C(CCC(=O)N(CC(=O)NC1CCCC1)Cc1ccc2c(c1)OCO2)Nc1ccccn1	-1%	-3.5	-1	-36	-13
CCN(CC)CCCN=C(C)c1c(O)n(C2CCCCC2)c(=O)[nH]c1=O	-11%	-0.8	3	-30	-7
CC(C(=O)O)N1C(=O)CSC1=S (centres undefined)	2%	-0.3	7	-38	-1
COc1ccc(N2CCCn3c2nc2c3c(=O)n(CCc3ccccc3)c(=O)n2C)cc1	-1%	x	x	x	-6
Cc1cc(C)n(-c2ccc(C(=O)OCC(=O)NC(c3ccccc3)c3ccccc3)cc2)n1	-4%	0.3	14	-13	-5
OCC#Cc1ncc(C(F)(F)F)cc1Cl	5%	-2.2	2	x	40
CCCN1C(=O)c2cc(C(=O)Nc3ccccc3OC)ccc2C1Nc1ccccc1OC (centres undefined)	x	0.0	x	x	20
CCC(=O)NCCSc1c[nH]c2ccccc12	-9%	7.5	-2	2	-5
CCNC(=S)NC1CC2CCCC(C1)N2Cc1ccco1 (centres undefined)	-6%	1.7	7	-23	2
O=C1c2cc([N+](=O)[O-])cc3cc([N+](=O)[O-])cc(c23)C(=O)N1c1ccccn1	2.9µM*	2.7	-24	-15	100
CC(C)C(NC(=O)OCc1ccccc1)C(=O)NCC(=O)OC(C)(C)C (centres undefined)	3%	-1.7	7	-41	-3	Arbovirus anti repeat=4
Cc1cccc(C)c1Nc1c(-c2ccsc2)nc2ncccn12	3%	-7.2	1	-6	4
CC(C)(C)C(=O)NNC(=O)C1CC1(c1ccccc1)c1ccccc1 (centres undefined)	x	-1.9	x	x	-2
Cn1c(=O)c(=O)n(C)c2cc(N3CCCC3)c(NS(=O)(=O)c3ccc(Cl)cc3)cc21	x	-3.6	x	x	-6
Cc1ccc(C(=O)NC(C)c2ccc3c(c2)OCO3)s1 (centres undefined)	-4%	0.8	13	x	0
CCOc1ccccc1Nc1ccc(C(=O)O)cc1[N+](=O)[O-]	-2%	-3.0	-3	x	-8
CCOC(=O)c1c(NC(=O)C(NCCN(C)C)c2ccccc2)sc2c1CCCC2 (centres undefined)	x	2.1	x	x	100
Cc1onc(-c2c(F)cccc2Cl)c1C(=O)NCC1COc2ccccc2O1 (centres undefined)	9%	-1.1	7	-38	-12
COc1ccc(O)c(C2(O)C(=O)c3ccccc3C2=O)c1	-4%	-1.2	x	x	-8
CCCCSc1nc(C)c(C(C)=O)cc1C#N	-2%	-0.6	2	-9	-2
CCO[C@@H]1OC(C(=O)N2CCN(Cc3ccccc3)CC2)=C[C@H](c2cn(C(C)=O)c3ccccc23)[C@H]1CCCO	2%	5.4	-12	x	-9
C/C(=N\NC(=S)NCc1ccccc1)c1ccc(Br)cc1	5%	-1.4	-1	x	-4
CCCN(CC(=O)Nc1ccccc1OC)C(=O)c1cnc(Cl)c(Cl)c1	x	3.0	x	x	2
COc1ccc(-c2nnc(COc3ccc4ccccc4c3)o2)cc1OC	-7%	2.0	7	-6	-12	Arbovirus anti repeat=4
COc1ccc(CC2(CO)CCN(CC3=Cc4cc(Cl)ccc4OC3)CC2)cc1	12%	-0.2	13	x	64
O=C(CCCc1ccccc1)c1ccccc1	x	-0.8	x	x	-2
COc1ccc(NS(=O)(=O)c2ccc(C)c(C(=O)N(C)CCc3ccc(OC)c(OC)c3)c2)cc1	x	-0.9	x	x	-6
COc1ccc2ccccc2c1/C=N/NC(=O)c1ccc([N+](=O)[O-])cc1	x	-1.7	x	x	0
COc1ccccc1-c1nnc(NC(=O)C(C)SC2=NCCS2)s1 (centres undefined)	18%	6.2	-6	1	-4	Arbovirus anti repeat=-8
O=C(COC(=O)c1ccc(S(=O)(=O)N2CCCC2)cc1)Nc1ccc(F)cc1F	2%	-1.0	-4	x	-3
CCC(=O)NC(C)C(c1cccs1)N1CCN(Cc2ccccc2)CC1 (centres undefined)	-3%	-1.1	2	-47	-4
CCOC(=O)c1csc(N)c1-c1ccc([N+](=O)[O-])cc1	10%	-1.2	x	x	24
Fc1cccc(Cc2noc(CN3CCCCC3CCc3ccccn3)n2)c1 (centres undefined)	5%	0.4	3	x	-5
Cn1c(SCC(=O)N2CCN(C(=O)c3ccco3)CC2)nnc1-c1ccc(NS(C)(=O)=O)cc1	-2%	-1.4	10	x	-2
CCOC(=O)c1nc(NCc2cccc(OC)c2)c2ccccc2n1	2%	-1.3	-3	x	7
Clc1ccc(/C=C/c2ncc3ccccn23)cc1	8%	-22	4	x	-2
N#CC1=C(N)Oc2cc(O)ccc2C1c1ccncc1 (centres undefined)	4%	-2.6	2	-22	-5
CC(=O)c1cccc(NC(=S)Nc2ccc(F)cc2)c1	x	-4.3	x	x	-4
Cc1ccccc1CN1CCN(Cc2ccccc2C(F)(F)F)CC1	0%	3.5	-8	-14	-6
O=C(Cn1nnc(-c2ccccc2)n1)Nc1ccc2c(c1)OCO2	-1%	0.8	-4	0	-4
Cc1cc(C)nc(N2CCCC(C(=O)NCCC3=CCCCC3)C2)n1 (centres undefined)	-3%	0.3	1	-52	5
C#CCSc1n[nH]c(-c2ccco2)n1	-6%	1.2	x	x	-7
CCOC(=O)N1CCN(C(=O)COC(=O)CSc2ccc([N+](=O)[O-])cc2)CC1	x	-2.7	x	x	-3
CN(C(=O)COC(=O)c1ccc(=O)n(Cc2ccccc2)n1)c1ccccc1	-2%	1.9	3	x	-2
Cc1ccsc1C1C(C(=O)O)c2ccccc2C(=O)N1C (centres undefined)	-10%	-1.5	5	2	3
CCN(CC)c1c([N+](=O)[O-])c(=O)sc2ccccc12	-3%	-0.8	4	-30	-7
COc1cccc(-c2nc(CS(=O)(=O)CC(=O)NCc3ccccc3)c(C)o2)c1	x	2.7	4	-15	-1	Arbovirus anti repeat=2
COC(=O)C1=C(CS(=O)(=O)c2ccc(OC)c(OC)c2)NC(=O)NC1c1ccc(O)c(OC)c1 (centres undefined)	x	-4.9	x	x	0
Cn1c(Cc2cccs2)nnc1SCC(=O)Nc1ccccc1F	x	1.0	x	x	-2
COc1cc(C(=O)NCC2CCCN2S(=O)(=O)c2cccs2)cc(OC)c1OC (centres undefined)	x	1.7	x	x	-1
CCC1=C(C)CN(C(=O)NCCc2ccc(S(=O)(=O)NC(=O)NC3CCC(C)CC3)cc2)C1=O (centres undefined)	10%	0.0	x	x	-13
CCc1c(C(=O)Nc2nnc(C3CC3)s2)csc1C	0%	-2.4	0	-32	-20
COc1ccc(-n2c(SCC(=O)Nc3nccs3)nc3sc4c(c3c2=O)CCN(C)C4)cc1	5%	16	10	-38	66
Cc1ccc(-n2nnnc2CN2CCCCC2)cc1	-22%	0.2	1	x	-2

Filtered by structure: those above with a nitro group on carbon.
SMILES	Mtb H37Rv	RecA intein inh	Arbovirus anti	YopH inh	Mtb betalactam	others
Cc1cc2cc(CNC(=O)Cc3ccc([N+](=O)[O-])cc3)ccc2n1C	6%	-4.8	-7	x	-3
O=C1c2cc([N+](=O)[O-])cc3cc([N+](=O)[O-])cc(c23)C(=O)N1c1ccccn1	2.9µM*	2.7	-24	-15	100
CCOc1ccccc1Nc1ccc(C(=O)O)cc1[N+](=O)[O-]	-2%	-3.0	-3	x	-8
COc1ccc2ccccc2c1/C=N/NC(=O)c1ccc([N+](=O)[O-])cc1	x	-1.7	x	x	0
CCOC(=O)c1csc(N)c1-c1ccc([N+](=O)[O-])cc1	10%	-1.2	x	x	24
CCOC(=O)N1CCN(C(=O)COC(=O)CSc2ccc([N+](=O)[O-])cc2)CC1	x	-2.7	x	x	-3
CCN(CC)c1c([N+](=O)[O-])c(=O)sc2ccccc12	-3%	-0.8	4	-30	-7

Carrying on.
SMILES	Mtb H37Rv	RecA intein inh	Arbovirus anti	YopH inh	Mtb betalactam	others
O=C(COC(=O)/C=C/c1ccc(Cl)cc1)Nc1ccc2[nH]c(=O)[nH]c2c1	x	-0.1	x	x	-11
CCn1cc(C(=O)O)c(=O)c2cc(F)c(N3CCN(C(=S)NC(=O)c4ccccc4F)CC3)cc21	63%	-0.6	x	x	75
CCOc1ccc(C2CC(=O)NC3=C2C(=O)CCC3)cc1 (centres undefined)	-5%	-0.7	0	-32	-5
O=C(c1cc2ccccc2oc1=O)N(Cc1ccc(F)cc1)C1CCS(=O)(=O)C1 (centres undefined)	-2%	-0.7	x	x	-3
CCC(=O)Nc1ccc(C(=O)CSc2nc3ccccc3cc2CC)cc1	8%	x	3	-33	6
O=C(CCCc1ccccc1)Nc1nccs1	x	0.0	x	x	2

Compound activity as filed in PubChem.
